Compound activity (PubChem)
NPR1 antag: Natriuretic polypeptide receptor (hNpr1) antagonism - Primary qHTS; Atrial natriuretic peptide receptor 1 (Homo sapiens), P16066; HEK293 hNpr1 GloSensor cGMP, ANP-stimulated luminescence; Potency, µM (doses to about 46.3 µM), for the others: at the top dose activity change, negative = inhibition, usual class: inhibitors; 76,000 tested, 1.6% active; AID 1347048, 2019; active = well fitted inhibition curve with a large enough effect; inconclusive = small, poorly fitted or top-dose-only effect; inactive = no such curve, though single readings can be large or run the other way;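 also: nearly all actives have a fitted effect of over 60% in size; nearly all hits also lower the signal before the agonist is added; a reference antagonist and vehicle were the controls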
Target sequence (P16066 whole entry, looked up): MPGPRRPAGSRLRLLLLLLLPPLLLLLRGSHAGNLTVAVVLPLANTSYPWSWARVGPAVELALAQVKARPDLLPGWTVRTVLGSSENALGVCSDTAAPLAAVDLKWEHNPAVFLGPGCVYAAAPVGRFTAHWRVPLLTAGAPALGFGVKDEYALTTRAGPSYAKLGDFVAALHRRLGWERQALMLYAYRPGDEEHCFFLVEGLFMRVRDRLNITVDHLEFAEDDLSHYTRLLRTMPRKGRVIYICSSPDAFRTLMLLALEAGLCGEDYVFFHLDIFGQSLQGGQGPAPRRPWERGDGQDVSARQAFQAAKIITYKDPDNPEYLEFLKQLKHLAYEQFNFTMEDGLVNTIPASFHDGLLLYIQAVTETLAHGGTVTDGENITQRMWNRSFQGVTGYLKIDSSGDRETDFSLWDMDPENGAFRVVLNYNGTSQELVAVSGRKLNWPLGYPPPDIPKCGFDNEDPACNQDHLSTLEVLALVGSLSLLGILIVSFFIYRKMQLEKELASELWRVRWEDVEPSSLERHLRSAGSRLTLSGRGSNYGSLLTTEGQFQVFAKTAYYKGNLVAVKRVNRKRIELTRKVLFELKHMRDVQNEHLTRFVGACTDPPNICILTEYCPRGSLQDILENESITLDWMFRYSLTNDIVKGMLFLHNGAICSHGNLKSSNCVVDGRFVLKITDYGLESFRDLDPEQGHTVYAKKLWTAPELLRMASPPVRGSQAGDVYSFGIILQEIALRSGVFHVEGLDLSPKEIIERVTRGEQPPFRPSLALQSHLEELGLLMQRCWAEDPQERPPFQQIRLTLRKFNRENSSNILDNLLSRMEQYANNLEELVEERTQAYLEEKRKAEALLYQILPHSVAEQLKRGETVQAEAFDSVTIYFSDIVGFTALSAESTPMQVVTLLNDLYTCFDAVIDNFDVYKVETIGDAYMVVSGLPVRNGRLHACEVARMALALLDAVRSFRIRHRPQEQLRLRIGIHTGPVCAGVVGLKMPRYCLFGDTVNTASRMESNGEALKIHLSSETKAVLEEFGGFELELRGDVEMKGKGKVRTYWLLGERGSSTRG
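Compound pre-incubated 30 min at room temperature on GloSensor-loaded HEK293 cells stably carrying hNpr1 and the pGS-40F cGMP biosensor. Stimulation uses hNppA at 0.1 nM final; luminescence is taken at baseline and 20 min post-agonist.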
Numbers without * were called inactive; ? = inconclusive; [ ] = remark or other dose. % is scaled to controls: 0 for no effect and ±100 for the full control effect; potency is read from the fitted curve at half-maximal effect.

Sample of the layout (4 entries):
SMILES | NPR1 antag
Cc1nc(-c2cccs2)cc([C@H]2CN3CC[C@H]2C[C@@H]3CNS(=O)(=O)c2ccccc2)n1 | -8.1%
Cc1ccc(C(=O)N2CCC3(CC2)c2nccn2-c2ccccc2CN3C)c(C)c1 | ?
CCCS(=O)(=O)N1CC(COC)C2(CCNCC2)C1 (stereo not given) | -5.4%
O=c1cccc2n1C[C@H]1C[C@@H]2CN(C[C@H]2CN3CC[C@H]2C[C@@H]3CNS(=O)(=O)c2cccs2)C1 | -3.2%

Main list, repeating the preview:
SMILES | NPR1 antag
Cc1nc(-c2cccs2)cc([C@H]2CN3CC[C@H]2C[C@@H]3CNS(=O)(=O)c2ccccc2)n1 | -8.1%
Cc1ccc(C(=O)N2CCC3(CC2)c2nccn2-c2ccccc2CN3C)c(C)c1 | ?
CCCS(=O)(=O)N1CC(COC)C2(CCNCC2)C1 (stereo not given) | -5.4%
O=c1cccc2n1C[C@H]1C[C@@H]2CN(C[C@H]2CN3CC[C@H]2C[C@@H]3CNS(=O)(=O)c2cccs2)C1 | -3.2%
O=C(CCc1c[nH]c2ccccc12)N1[C@H]2CC[C@@H]1c1cnc(-c3ccccc3)nc1C2 | 7.4%
CSCC(=O)N1C[C@@H]2C[C@H](C1)c1ccc(-c3ccccc3CN(C)C)c(=O)n1C2 | 1.9%[70.6 µM]
CN1CCN2C(=O)N(c3ccccc3)C[C@H]2C1 | -1.6%[70.6 µM]
Cn1cnc(S(=O)(=O)N2[C@H]3CC[C@@H]2c2cnc(-c4ccc(F)cc4)nc2C3)c1 | 0.4%
Cc1ccccc1OCC(=O)N1CCN(Cc2ccc(=O)n(C)c2)CC1 | -3.8%
CC(C)c1nccc(CN2CCCC3(CNC(=O)O3)C2)n1 (stereo not given) | -1.5%
CC[C@H]1CN2CC[C@H]1C[C@@H]2CNC(=O)c1cccc(F)c1 | 3.8%[70.6 µM]
COc1cc2c(cc1-c1cccnc1OC)NC(=O)C21CCN(C(C)=O)CC1 | -6.6%[70.6 µM]
c1cnc2nc(C3CCCNC3)[nH]c2c1 (stereo not given) | 18.4%[70.6 µM]
CC[C@H]1CN2CC[C@H]1C[C@@H]2COC(=O)Nc1cccc2ccccc12 | -8.8%[70.6 µM]
O=C1NC2(CCN(Cc3ccncc3)C2)Oc2ccccc21 (stereo not given) | 0.0%[70.6 µM]
CCCNC(=O)OC[C@H]1C[C@@H]2CCN1C[C@@H]2c1cc(-c2ccc(F)cc2)nc(C)n1 | -0.9%[70.6 µM]
COC(=O)c1ccc(NC(=O)N2[C@H]3CC[C@@H]2c2cnc(C)nc2C3)cc1 | 1.1%
O=C(Cc1c(F)cccc1Cl)N1[C@H]2CC[C@@H]1c1cnc(-c3ccccc3)nc1C2 | -6.8%
O=C(CN1CCCC1=O)NCc1ccccc1C(F)(F)F | -2.2%
CN(C)Cc1ccccc1-c1ccc2n(c1=O)C[C@H]1C[C@@H]2CN(C(=O)c2cnccn2)C1 | -12.1%[70.6 µM]

Gathered by group: the compounds so far containing two or more sulfur atoms.
SMILES | NPR1 antag
Cc1nc(-c2cccs2)cc([C@H]2CN3CC[C@H]2C[C@@H]3CNS(=O)(=O)c2ccccc2)n1 | -8.1%
O=c1cccc2n1C[C@H]1C[C@@H]2CN(C[C@H]2CN3CC[C@H]2C[C@@H]3CNS(=O)(=O)c2cccs2)C1 | -3.2%

(listing goes on)
SMILES | NPR1 antag
CC(=O)Nc1ccc2n(c1=O)C[C@H]1C[C@@H]2CN(C(=O)c2ccccn2)C1 | 8.4%[70.6 µM]
CCCS(=O)(=O)N1[C@H]2CC[C@@H]1c1cnc(-c3ccc(F)cc3)nc1C2 | 17.8µM*
Cc1noc(C)c1CC(=O)N1[C@H]2CC[C@@H]1c1cnc(-c3ccc(F)cc3)nc1C2 | -15.9%
COc1ccccc1NC(=O)N1C[C@@H]2C[C@H](C1)c1ccc(-c3ccccc3C)c(=O)n1C2 | 0.4%[70.6 µM]
CC(C)C(=O)N1CC[C@@H]2COCCN(Cc3cccnc3)[C@@H]2C1 | -1.6%
COc1cccn(CC(=O)N2CCN(C)C3(CCNCC3)C2)c1=O | -0.4%
COc1ccc(-c2cc([C@H]3CN4CC[C@H]3C[C@@H]4CNS(=O)(=O)c3cccs3)n(C)n2)cc1 | -0.6%
CN1C(=O)CO[C@H]2CN(C3CCOCC3)C[C@H]21 | 2.7%[70.6 µM]
Cc1nc(-c2ccc(N(C)C)cc2)cc([C@H]2CN3CC[C@H]2C[C@@H]3CNC(=O)c2ccccc2)n1 | -2.5%
COc1cc2c(cc1OCc1ccccc1)NC(=O)C21CCN(C(C)=O)CC1 | -3.0%[70.6 µM]
CN1CC2CN(C(=O)c3cccs3)CC(C1)O2 | -3.6%
COc1ccc(-c2cc([C@H]3CN4CC[C@H]3C[C@@H]4CNC(=O)c3ccccc3)n(C)n2)cc1OC | 1.7%
COc1ccc(-c2cc([C@H]3CN4CC[C@H]3C[C@@H]4CNC(=O)NC3CCCCC3)n(C)n2)cc1 | -1.4%
Cc1nc(-c2ccc(C(F)(F)F)cc2)cc([C@H]2CN3CC[C@H]2C[C@@H]3CNS(C)(=O)=O)n1 | 0.9%
C=CCN1C[C@@H]2CN(S(=O)(=O)c3cccnc3)C[C@]2(C(=O)O)C1 | -0.7%
C#C[C@H]1CN2CC[C@H]1C[C@@H]2CNS(=O)(=O)c1ccc(C)cc1 | 5.5%[70.6 µM]
CCC(CC)c1cc([C@H]2CN3CC[C@H]2C[C@@H]3CNC(=O)Nc2cccc(C#N)c2)nc(-c2ccncc2)n1 | -16.3%
O=C1NC[C@H]2CN(Cc3ccccc3)CCN12 | 0.3%[70.6 µM]
Cc1ccccc1C(=O)N1CCC2(CC1)NCc1ccccc1-n1ccnc12 | -22.0%
CCC1(N2CCN(C(=O)Cc3ccccc3F)CC2)CCN(S(C)(=O)=O)C1 (stereo not given) | 5.5%

As entered above:
`O=C1NC2(CCN(Cc3ccncc3)C2)Oc2ccccc21` (stereo not given) in NPR1 antag is listed with 0.0%[70.6 µM]
`COc1ccc(-c2cc([C@H]3CN4CC[C@H]3C[C@@H]4CNS(=O)(=O)c3cccs3)n(C)n2)cc1` in NPR1 antag is listed with -0.6%
`CSCC(=O)N1C[C@@H]2C[C@H](C1)c1ccc(-c3ccccc3CN(C)C)c(=O)n1C2` in NPR1 antag is listed with 1.9%[70.6 µM]
`c1cnc2nc(C3CCCNC3)[nH]c2c1` (stereo not given) in NPR1 antag is listed with 18.4%[70.6 µM]

The list continues.
SMILES | NPR1 antag
COc1cc2c(cc1Oc1cccc(N(C)C)c1)NC(=O)C21CCN(CC2CC2)CC1 | ?
COc1ccc(NC(=O)N2[C@H]3CC[C@@H]2c2cncnc2C3)cc1OC | 4.5%
CC(C)(C)CC(=O)N1C[C@@H]2C[C@H](C1)c1ccc(NC(=O)c3ccco3)c(=O)n1C2 | 0.1%[70.6 µM]
O=C(NC[C@H]1C[C@@H]2CCN1C[C@@H]2CN1CCOCC1)c1ccc(C(F)(F)F)cc1 | 0.3%[70.6 µM]
CN(Cc1ccccc1)Cc1cn(C[C@H]2CC3CCN2C[C@@H]3C(=O)NCc2ccccc2)nn1 (stereo not given in full) | 3.0%
COc1ccc2c(c1)C1(CCN(S(=O)(=O)c3cccc(Cl)c3)C1)C(=O)N2C (stereo not given) | -0.2%
COc1ccc(S(=O)(=O)NC[C@H]2C[C@@H]3CCN2C[C@@H]3CN2CCc3ccccc32)cc1 | 1.8%[70.6 µM]
COc1cc2c(cc1OCCN(C)C)NC(=O)C21CCN(Cc2ccccc2)CC1 | -0.1%[70.6 µM]
COc1ccc2c(c1)C1(CCN(C(=O)c3ccc(C)c(F)c3)C1)C(=O)N2C (stereo not given) | -7.3%
C=C[C@H]1CN2CC[C@H]1C[C@@H]2CNCc1ccc2c(c1)OCO2 | -0.7%[70.6 µM]
CC(C)(O)c1cn(C[C@H]2CC3CCN2C[C@@H]3C(=O)Nc2nccs2)nn1 (stereo not given in full) | 2.1%[70.6 µM]
N#CC1(c2ccccc2)CCN(C(=O)[C@H]2CCC[C@@H](O)C2)CC1 | 4.8%
COc1cc2c(cc1OC1CCCC1)NC(=O)C21CCN(C(=O)Cc2ccccc2)CC1 | ?

These rows are one share of the data. The share of hits here may be higher or lower than overall.
